AID504770 = E. coli YBA685 growth inhibition, screen for V. cholerae RctB inhibitors. 130,000 compounds, 0.27% hits. AID 504770. E. coli YBA685 rctB-dependent plasmid, OD600 growth, 3 h; hits give low values. z-score (no concentration beside the values);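 active = z-score under -2 on both plates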;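 also: wells of about 30 µL received 100 nL stock; score is relative to mean and SD of the test wells; the first replicate is given; strong numbers were not always called active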
Ba CapD inh = inhibitors of Bacillus anthracis CapD enzyme; purified CapD enzyme, fluorescence intensity read-out; hits give low values; some hits fall short of the stated cut; z-score (no concentration beside the values); 140,000 compounds, 0.23% hits; AID 492967;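 active = z-score under -4 in either of two replicates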;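 also: stock transfer was 100 nL into about 40 µL; score is relative to mean and spread of the plate; one replicate is shown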
Active calls of the source: *; x = no result given; & = joins results of further samples.

canonical_smiles,AID504770,Ba CapD inh
COc1cc(/C=c2\sc3nc4ccccc4n3c2=O)cc(Br)c1OCC#N,x,-0.63
CCc1nc2cccnc2n1-c1ccc(CC(=O)NC2CCCC2)cc1,0.3,0.54
O=C(NC12CC3CC(CC(C3)C1)C2)n1ncc2cc(Cl)ccc21,1.6,0.32
CCCc1nc2ccccc2n1CC(=O)Nc1ccc(OC)cc1OC,-0.2,-0.24
CN1CCC2(CC1)N=C(c1ccccc1)C(=S)N2,-0.35,-1.2
Cc1cccc(N/C=C2/CCCCC2=O)c1,-0.5,-0.71
COc1cccc(/C=N/N(C)C2=NS(=O)(=O)c3ccccc32)c1O,-0.05,3.8
Cc1ccc(S(=O)(=O)NC(=O)c2cc(C)n(CCCN3CCOCC3)c2C)cc1,0.1,x
Cc1nc2c(C(=O)N3CCCCC3)c[nH]n2c(=O)c1Cc1ccc(Cl)cc1,-0.8,3.9
CSc1sc(C#N)c2c1/C(=N\O)CCC2,-0.25,-0.2
COC(=O)c1ccc(CO)nc1,0.15,x
Cc1cc(C)n(C(=O)c2ccc(NC(=O)CC(C)C)cc2)n1,1.5,-0.41
O=C(COC(=O)CSc1nc(-c2ccccc2)cc(-c2ccccc2)n1)NCc1ccccc1,x,-0.27
CC(NS(=O)(=O)c1ccc(Oc2cccc(Cl)c2C#N)cc1)C(N)=O (configuration not stated),x,0.58
O=C(N/N=C/C=C/c1ccccc1)c1ccccc1-n1cccc1,x,-2.6
N#C/C(=C\c1cnc[nH]1)S(=O)(=O)c1ccc(Cl)cc1,-1,-1.9
O=C(Nc1ccccc1C(=O)Nc1nncs1)c1ccccc1,1.6,2.7
Cc1ccc(CN(CC(=O)NC2CCCC2)C(=O)CSc2nnc(COc3ccccc3)o2)cc1,1.2,x
CCCN(C)C(=O)c1cc2ccccc2oc1=O,0,2.8
Cn1cc(NC(=O)NC2CCCCC2)c2ccccc2c1=O,1.2,11

Going on with the list.
canonical_smiles,AID504770,Ba CapD inh
CCOc1cc(CN2CCN(C(=O)CC(C)C)CC2)ccc1OC,-1.1,-0.01
O=C1c2ccccc2C(=O)N1c1ccc(OCc2ccccc2)cc1,-1,-0.31
CCOC(=O)c1ccc(N2N=C(C(F)(F)F)/C(=C/c3ccc4c(c3)OCO4)C2=O)cc1,x,-0.05
OCCCc1nc2ccccc2n1CCCOc1ccccc1,-0.5,-0.57
Clc1cc(CN2CCSCC2)c(Cl)s1,-0.4,1.1
COc1ccccc1OCC(=O)N/N=C1/SCC(=O)N1Cc1ccccc1,-0.65,x
N#CCOC(=O)c1ccccc1Sc1ccccc1C#N,-0.1,x
COC(=O)C12CCC3(C(=O)OC)CC(C(=O)OC)(CC(C(=O)OC)(C1)C3=O)C2=O,-0.55,-0.3
Cc1ccc(C(=O)Nc2ccc(S(=O)(=O)N3CCCCC3c3cccnc3)cc2)cc1C (configuration not stated),x,0.36
O=C(O)c1nnn(-c2cccc(C(F)(F)F)c2)c1-c1ccccc1,0.05,0.52
O=C(OCC(=O)N1CCCCCC1)c1ccccc1,-1.1,x
CSc1scc2c1/C(=N/OC(C)=O)CC(C)(C)C2,0.5,0.26
N#Cc1ccc(-c2cccs2)nc1SCc1ccncc1,1.1,60
COc1ccc(OC)c(-c2nc(-c3ccccc3)c(-c3ccccc3)[nH]2)c1,x,-0.31
Cc1csc(/C(C#N)=N/OC(=O)c2ccco2)n1,-0.5,x
O=C(COc1ccccc1)c1nnc(-c2ccc(Cl)cc2)o1,0.25,x
Cc1ccc2c(c1)C(c1ccccc1)=Nc1ccc(C)cc1C(c1ccccc1)=N2,x,0.08
O=C(O)C(Cc1ccccc1)N1C(=O)CCC1=O (configuration not stated),0.35,0.095
Cc1ccc(CNCCO)o1,0,x
OC(CN1CCCC1)Cn1c2ccccc2c2ccccc21 (configuration not stated),-0.7,15

Filtered by structure, the compounds so far containing a Cl atom
canonical_smiles,AID504770,Ba CapD inh
O=C(NC12CC3CC(CC(C3)C1)C2)n1ncc2cc(Cl)ccc21,1.6,0.32
Cc1nc2c(C(=O)N3CCCCC3)c[nH]n2c(=O)c1Cc1ccc(Cl)cc1,-0.8,3.9
CC(NS(=O)(=O)c1ccc(Oc2cccc(Cl)c2C#N)cc1)C(N)=O (configuration not stated),x,0.58
N#C/C(=C\c1cnc[nH]1)S(=O)(=O)c1ccc(Cl)cc1,-1,-1.9
Clc1cc(CN2CCSCC2)c(Cl)s1,-0.4,1.1
O=C(COc1ccccc1)c1nnc(-c2ccc(Cl)cc2)o1,0.25,x

More entries.
canonical_smiles,AID504770,Ba CapD inh
COc1cccc(OCc2nnc(SCc3csc(Nc4ccc(C)cc4)n3)n2N)c1,-0.6,x
C=CCC(O)(CC=C)C1CCCN1 (configuration not stated),2.2,x
C#CCN(C)Cc1ccccc1,x,0.36&0.21
CCOC(=O)C1=C(C)NC(=O)CC1c1ccc(F)cc1 (configuration not stated),-0.8,-0.04
Cc1cc(Br)ccc1N1C(=O)/C(=C/c2ccc(-c3ccc(Br)cc3)o2)C=C1c1ccccc1,x,1.5
CSc1ccc(-c2nc(CSCC(=O)N(C)Cc3ccccc3)c(C)o2)cc1,-1.3,1.6
Cc1ccc(C)c(Cn2cccc2C2=NC(C)(C)CO2)c1,-1.1,-0.34
COc1ccc(C(=O)OC2CCN(C)CC2)cc1,-0.35,-0.25
c1ccc2c(c1)CC(Nc1ccc3cn[nH]c3c1)C2,-0.35,15
O=c1[nH]nc2ccccn12,1,x
CC1=NN(c2ccc(C(=O)NC(C(N)=O)C(C)OCc3ccccc3)cc2)C(=O)C1 (configuration not stated),x,-0.65
Cc1ccc(-c2nnc(-c3csc(C)n3)o2)cc1,0.8,-1.5
COc1ccc(/C=C(\C#N)S(=O)(=O)c2ccc(Cl)cc2)cc1,-1,-1.3
O=C(CSc1nc2cc(C(=O)NCc3ccco3)ccc2c(=O)n1Cc1ccco1)NCc1ccco1,x,-0.56
O=C(NC1CC1)C1CCN(Cc2cc3cccc4c3n(c2=O)CCC4)CC1,x,5.5
CCOC(=O)C1=C(N)OC2=C(C(=O)CC(c3ccccc3)C2)C1c1cc(OC)c(OC)c(OC)c1 (configuration not stated),x,-0.11
O=[N+]([O-])c1cccc(C(O)C(Cl)(Cl)Cl)c1 (configuration not stated),x,-0.14
CCOC(=O)N1CCC(NC(=O)CCc2cn(Cc3ccccc3C)c3ccccc23)CC1,-0.05,0.38
Cc1ccc(N2CCN(C(=O)C(c3ccccc3)c3ccccc3)CC2)cc1C,-0.3,-0.39
CC1Cc2ccccc2N1C(=O)C1CCCO1 (configuration not stated),0.05,-0.58

Next results:
canonical_smiles,AID504770,Ba CapD inh
COc1ccc(CN2C(=O)NC(=O)/C(=C\c3ccc(OC)cc3OC)C2=O)cc1,x,0.48
COc1ccc(CN2C(=O)C(=O)N(Cc3ccc(Cl)cc3)C2=O)cc1,x,-0.32
CCC(CO)NC(=S)Nc1c(C)cccc1C (configuration not stated),0.5,0.24
Fc1ccc(-c2onc3ccc(-c4ccn(-c5ccccc5F)n4)cc23)cc1,x,-1
COc1ccc(/C=N/c2ccco2)cc1,-1.1,-0.51
N#C/C(=C\c1ncc(C(F)(F)F)cc1Cl)C(=O)Nc1ccc(Cl)cc1,x,-0.17
C=CCn1c(CSc2nc(N)cc(N)n2)n[nH]c1=S,-1.1,0.17
CN(C(=O)CSc1n[nH]c(N)n1)C1CCCCC1,-0.5,x
CC(C)Sc1nnc(NC(=O)c2cccs2)s1,2.1,-0.99
S=C(NCCSc1ccc(Cl)cc1)Nc1cccc(Cl)c1,-0.25,-0.76
CC(C)(C)C(=O)Nc1scc(-c2cccs2)c1C(=O)O,-0.55,0.24
Clc1ccc2oc(-c3ccccc3)c/c(=N\c3nccs3)c2c1,-1.1,16
COc1ccc(OCCn2c(=O)n(CCOc3ccc(OC)cc3)n(-c3ccccc3)c2=O)cc1,0.8,x
N#Cc1c(N)nc2c(c1-c1ccccc1)CCCC2,2.4,x
COC(=O)C1=C(C)NC(=O)N(C(C)=O)C1c1ccc(OC)cc1 (configuration not stated),0.7,-0.39
COc1ccccc1C1(O)CCN(Cc2ccccc2)CC1,-0.15,0.54
Clc1ccc(Cn2c(-c3ccc(Cl)nc3)nc3ccccc32)cc1,x,18
Cc1cc(CS)cs1,-0.5,-0.065
Cc1ccc(CN2C(=O)NC(c3ccc(F)cc3)C2=O)cc1 (configuration not stated),-0.55,x
O=C(O)CCCC1OC(CCCC(=O)O)OC(CCCC(=O)O)O1 (configuration not stated),-0.25,x

Carrying on.
canonical_smiles,AID504770,Ba CapD inh
O=C(O)COCC(=O)Nc1nc(SCc2ccc(Cl)cc2)n[nH]1,-0.3,1.1
Cn1c(=S)n(CN2CCC3(CC2)OCCO3)c2ccccc21,-0.85,0.07
CN(S(=O)(=O)c1ccc2c(c1)OCCO2)S(=O)(=O)c1cccs1,-0.55,x
COCCCNC(=S)NNS(=O)(=O)c1ccc(C)cc1,x,0.045
NC(=O)c1ccccc1NC(=O)CCC1CCCCC1,0,1
COc1cc(/C=N/NC(=O)c2ccc3nonc3c2)cc(OC)c1,x,0.01
O=C(/C=C/c1ccc2c(c1)OC(F)(F)O2)Nc1ccc(F)cc1Cl,x,-0.45
O=C([C@@H](c1ccccc1)N1Cc2ccccc2C1=O)N1CCCC1,-4.5,-0.36
C/C(=N\OCc1ccc(C#N)cc1)c1ccccc1,0.65,x
CN1/C(=C\C(=O)CN(Cc2ccco2)S(=O)(=O)c2ccc3c(c2)OCCO3)C(C)(C)c2ccccc21,0.95,x
COc1ccc(Cn2c(CO)cnc2SCC(=O)N(C)c2ccccc2)cc1,0.15,0.48
CCCCn1nnnc1COC(=O)c1cc(OC)c(OC)cc1NC(=O)c1ccco1,0.35,x
CN(C)CCC(=O)c1ccc(Cl)cc1,x,0.11
CN1CC(=O)N(C)c2ccccc21,-1.9,0.98
CCOC(=O)c1sc2nc(SCc3cc(C(C)=O)ccc3OC)n(CCCN3CCCC3=O)c(=O)c2c1C,x,0.74
Cc1cccc(N2CC(O)(c3cccc([N+](=O)[O-])c3)[N+]3=C2SCCC3)c1C (configuration not stated),x,0.39
CCOC(=O)c1c(CC(C)C)csc1/N=C/C1C(=O)CCCC1=O,-0.65,13
Nc1cc2c(cc1[N+](=O)[O-])S(=O)(=O)c1cc([N+](=O)[O-])c(N)cc1-2,x,-0.29
Cc1cc(-n2c(C)cc(C(=O)COC(=O)C(C)Nc3ncnc4sc(C)c(C)c34)c2C)no1 (configuration not stated),-0.6,x
CCOc1cccc(/C=N/NC(=O)/C=C/c2ccc3c(c2)OCO3)c1O,x,3.4

One compound at a time (already shown):
Shown for O=C(COC(=O)CSc1nc(-c2ccccc2)cc(-c2ccccc2)n1)NCc1ccccc1 : AID504770: x; Ba CapD inh: -0.27
Shown for Cc1ccc(C(=O)Nc2ccc(S(=O)(=O)N3CCCCC3c3cccnc3)cc2)cc1C (configuration not stated) : AID504770: x; Ba CapD inh: 0.36

Later entries.
canonical_smiles,AID504770,Ba CapD inh
O=C1C2C(c3ccccc3)C=CC(c3ccccc3)C2C(=O)N1CCCO (configuration not stated),-1.3,-0.005
Cn1c([O-])c([N+](C)(C)C)c(=O)n(C)c1=O,0.2,0.28
CC1C(=O)CCN(CCCO)C1C (configuration not stated),0.3,0.12
Cc1csc(Nc2cccc3ccccc23)n1,x,34
N#CC1=C(N)Oc2c(oc(CO)cc2=O)C1c1ccsc1 (configuration not stated),0.05,0.52
COc1ccc(C(CNS(=O)(=O)c2cccs2)N2CCN(C)CC2)cc1 (configuration not stated),-0.45,x
O=C(CN1C(=O)CCC1=O)Nc1ccc2sccc2c1,-0.6,0.2
Cc1ccc(SCC(=O)N2CCC(C(F)(F)F)CC2)cc1,-0.3,0.045
O=C(NCCCN1CCOCC1)C1C2C=CC3(CN(Cc4cccs4)C(=O)C13)O2 (configuration not stated),x,0.99
Cc1ccc(/C(O)=C2\C(=O)C(=O)N(c3ccccn3)C2c2cccc([N+](=O)[O-])c2)cc1 (configuration not stated),x,-0.51
Cc1ccc(S(=O)(=O)N2C(=O)CCC2C(=O)N(Cc2nc(-c3cccc(C)c3)no2)C(C)C)cc1 (configuration not stated),1.8,-0.02
CN(C)CC1(CC(=O)O)CCCCC1,2,-1.5
Cc1cc(Nc2ccccc2)n2ncnc2n1,-0.55,x
Cc1onc(-c2c(Cl)cccc2Cl)c1C(=O)N1CCC(CCCC2CCN(C(=O)c3c(-c4c(Cl)cccc4Cl)noc3C)CC2)CC1,x,-0.53
Cc1nc(N2CCOCC2)c2c(C)c(C(=O)Nc3c(F)cc(F)cc3Br)sc2n1,x,4.5
CCN(CC)C(=O)C1CCN(Cc2ccccc2F)CC1,-0.2,x
C=CCN(CC=C)C(=O)c1ccc(SC)cc1OC,0.6,x
Cc1c(C(=O)O)sc2ncnc(N3CCN(c4ccccc4F)CC3)c12,x,-0.84
CC(NC(=O)c1ccccc1OCC(=O)NC12CC3CC(CC(C3)C1)C2)c1ccccc1 (configuration not stated),-0.05,2.2
O=C(Nc1ccc(Sc2ccccc2Cl)cc1)c1c(F)cccc1F,x,-0.29

The list is partial, so the mix of outcomes need not match the whole.
